AID504770: growth inhibitors of E. coli YBA685 in a screen for V. cholerae RctB (chromosome II replication) inhibitors. E. coli YBA685 rctB-dependent plasmid, OD600 growth, 3 h; hits give low values. z-score (concentration not given with the values). 130,000 tested, 0.27% active. AID 504770;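 active = z-score under -2 on both plates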;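 also: wells of about 30 µL received 100 nL stock; score is relative to mean and SD of the test wells; the first replicate is given; strong numbers were not always called active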
Ba CapD inh: blocks the Bacillus anthracis CapD enzyme | purified CapD enzyme, fluorescence intensity read-out; hits give low values; some hits fall short of the stated cut | 140,000 tested, 0.23% active | AID 492967 | z-score (concentration not given with the values);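 active = z-score under -4 in either of two replicates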;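 also: stock transfer was 100 nL into about 40 µL; score is relative to mean and spread of the plate; one replicate is shown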
* marks the source's active call; other numbers are inactive results; i = inactive; x = no result given. Not all compounds are listed, so the mix of outcomes need not match the whole.

SMILES | AID504770 | Ba CapD inh
COc1ccccc1NC1CC(C)N(C(=O)c2ccc(C)cc2)c2c(C)cccc21 (stereo not drawn) | x | 0.1
C=CCN(CC=C)C(=O)c1ccc(N2C(=O)CCC2=O)cc1 | -0.15 | 0.24
CN(C)CCNC(=O)c1ccc(/C=C2\SC(=S)N(C)C2=O)cc1 | 0.65 | x
Cc1nc(COC(=O)c2cc(O)c3ccccc3c2O)cs1 | -0.2 | x
CCN(CC)C(=O)c1ccc(Cn2cc(Cl)cn2)o1 | 0.1 | -0.3
Cc1cc(CSc2cc(C)c(Cl)cc2Cl)no1 | -1.3 | -0.55
CC(C)(C)NC(=O)c1ccncc1 | 0.8 | -0.28
OCCSCCc1ccncc1 | -0.3 | -0.7
CC(C)N(C(=S)NCc1ccccc1)C(C)C | 0.75 | 0.9
CC(C)(Oc1ccc(Cl)cc1)C(=O)N1CCCCC1 | -0.2 | 0.055
CC(C)n1cc(-c2ccc(C(=O)NCc3cccc(C(F)(F)F)c3)cn2)cn1 | x | 1.3
O=C(CN1C(=O)S/C(=C\c2ccco2)C1=O)Nc1ccc(O)c(C(=O)O)c1 | 0.45 | x
Cc1nn2c(=O)cc(COc3cccc(NC(=O)c4cccs4)c3)nc2s1 | 1.2 | 0.26
Cc1cc(=O)[nH]c2ccccc12 | -0.2 | x
NC(=O)c1cccc(CS(=O)(=O)c2ccc(Cl)cc2)c1 | 0.4 | -0.51
CCSc1nnc(NC(=O)c2ccc(OC)cc2OC)s1 | 0.55 | i
Cc1cc(-c2nnc(SCC(N)=O)n2CC2CCCO2)cs1 (stereo not drawn) | 0.3 | -0.12
CCOc1ccc(N/C=C/C(=O)c2ccco2)cc1 | 1.1 | -1.9
O=C1CSCC(=O)N1c1csc(C(F)(F)F)c1-c1ccccc1 | -0.65 | -0.38
O=C(CCc1c[nH]c2ccccc12)Oc1ccc(F)cc1 | -0.75 | -0.47

Continued (2 carried over from the part before).
SMILES | AID504770 | Ba CapD inh
O=C1CSCC(=O)N1c1csc(C(F)(F)F)c1-c1ccccc1 | -0.65 | -0.38
O=C(CCc1c[nH]c2ccccc12)Oc1ccc(F)cc1 | -0.75 | -0.47
COCCCNC(=O)COc1ccc(-c2nccc(-c3ccccn3)n2)cc1 | x | -0.17
c1cncc(CNC2CCCc3ccccc32)c1 (stereo not drawn) | -0.2 | x
CC12CCC(C(=O)N(CNc3ccccc3)C1=O)C2(C)C (stereo not drawn) | x | -0.6
O=c1[nH]c2ccccc2nc1-c1ccc(Br)s1 | 1.4 | 5.3
Cc1c(NC(=O)C(C)(C)C)c(=O)n(-c2ccccc2)n1C | -0.6 | -1.1
CCOC(=O)c1cc2c3c(c1)C1C=CCC1C(c1ccc(F)cc1)N3CC1CC=CC21 (stereo not drawn) | x | 1.4
COc1cc(C2Nc3ccc4ccccc4c3C3=C2C(=O)CC(c2ccccc2)C3)cc(Br)c1O (stereo not drawn) | x | 11
CCc1ccc(NS(=O)(=O)c2ccc3c(c2)CC(=O)N3)cc1 | -1 | 0.42
CCSCCOC(=O)C1=C(C)NC2=C(C(=O)CC(C)(C)C2)C1c1cc(Br)c(O)c(OC)c1 (stereo not drawn) | x | 1
CCOc1ccc(CNC(=O)C2CCC(=O)N2C2CCCC2)cc1OC (stereo not drawn) | -1 | -0.77
COc1ccc2ccccc2c1CN1CCN(C(=O)OCc2cccc(C)c2[N+](=O)[O-])CC1 | x | -0.1
COC(=O)c1cccc2cccc(-c3cccc4cccc(C(=O)OC)c34)c12 | x | 9
N#CC(=C1CCCC1)c1nc2ccccc2[nH]1 | -0.75 | 0.18
CCOC(=O)c1c(C)oc(C)c1CN | -0.15 | x
CN(C)CCCn1c(-c2ccccc2)csc1=Nc1ccccc1 | 1.5 | x
COc1ccc(N2C(=O)C3N=NN(CC(=O)NCc4ccccc4)C3C2=O)cc1OC (stereo not drawn) | 0.25 | 0.29
COc1ccc(NC(=O)CSc2nc3c(c(-c4ccccc4)c2C#N)CN(C)CC3)cc1OC | x | -0.15
O=C(CSc1ncnc2ccccc12)N1CCCCC1 | -0.35 | -0.42
CCOc1cc(/C=C2/C(=O)N(c3ccccc3)N=C2C)ccc1Oc1nc(Cl)ncc1F | x | -0.42
COc1cc(C2CC(=O)NC(SCC(=O)NCc3ccccc3)=C2C#N)ccc1O (stereo not drawn) | 0.05 | -0.66
COC(=O)CSc1nc2sc3c(c2c(=O)n1CCc1ccccc1)CC(C)(C)OC3 | x | -0.035
COc1cc(OC)c(NC(=O)c2ccc3c(=O)n4c(nc3c2)CCCCC4)cc1Cl | 0.95 | -1.4
O=C(COc1ccc(-n2cnnn2)cc1)Nc1ccccc1 | -0.45 | x
CCOc1ccc2oc(-c3ccccc3)c(C(=O)O)c2c1 | 1.1 | 78
NNC(=S)Nc1ccc(S(=O)(=O)N2CCOCC2)cc1 | 0.45 | x
c1ccc(COc2ccc(C3N(Cc4ccccc4)CCN3Cc3ccccc3)cc2)cc1 | x | -0.29
CC(C)CCCC(C)C1CCC2C3CC=C4CC(OC(=O)C(C)Cl)CCC4(C)C3CCC12C (stereo not drawn) | x | -0.09
CCN(CC)c1ccc(-n2nc3cc(C)c(N)cc3n2)cc1 | 0.4 | 60
COc1ccc(C2CC(=O)C3=C(C2)NC(C)=C(C#N)C3c2ccc(Br)cc2)cc1 (stereo not drawn) | x | 41
CC(=O)NC(=O)c1cc2cc(Cl)cc(Cl)c2oc1=Nc1cccc(C#N)c1 | x | 0.76
Cc1cc(C)nc(N/C=C(\C#N)S(=O)(=O)c2ccccn2)n1 | 0.35 | -1
OCCN1C2=NCCCN2c2ccccc21 | -0.1 | x
Cc1ccc(N(C(=O)Nc2c(-c3c(Cl)cccc3Cl)noc2C)S(C)=O)cc1 (stereo not drawn) | -0.05 | 0.57
O=C(Cn1cc(C(F)(F)F)ccc1=O)Nc1ccc(S(=O)(=O)N2CCCC2)cc1 | 0.1 | x
O=C(COC(=O)C1CC(=O)N(Cc2ccco2)C1)NC1CCCc2ccccc21 (stereo not drawn) | 1.4 | x
Fc1ccc2nc3c(nc2c1)c1ccccc1n3Cc1ccc(C(F)(F)F)cc1 | x | -0.62
O=C(Cc1ccc(F)c(F)c1)N1CCC(C(O)(c2ccccc2)c2ccccc2)CC1 | x | -0.92
O=C1CN=C(c2ccc(Br)cc2)c2cc(Br)ccc2N1 | x | -0.15
CC(C(=O)O)N1C(=O)COc2ccccc21 (stereo not drawn) | -0.8 | 0.29
CCCOCC1OC2OC(C)(C)OC2C2OC(C)(C)OC12 (stereo not drawn) | x | -0.27
Cc1nn(C)c(C)c1Nc1n[nH]c(N)n1 | -0.1 | -0.46
CC(C)C(C)(C#N)NC(=O)CSc1nc(N)cc(=O)[nH]1 (stereo not drawn) | -0.45 | x
CCCCC(C(=O)Nc1ccccc1OC)N1C(=O)C2C3c4ccccc4C(c4ccccc43)C2C1=O (stereo not drawn) | x | 0.07
CCCCn1c(N)c(N(C(=O)c2ccc(N3CCCC3=O)cc2)C2CCCC2)c(=O)[nH]c1=O | -1.1 | x
O=C(O)CCn1nc(-c2ccc(F)cc2)ccc1=O | 1.4 | 6.7
O=C(/C(=C\c1cccs1)c1ccsc1)N1CCOCC1 | 0.95 | -1
C/C(=N\N1C(=O)c2ccccc2NC12CCCCC2)c1ccccc1O | 0.1 | -0.37
OCC1OC(Nc2ccccc2)CC1O (stereo not drawn) | 1.1 | -0.3
Cc1cc(Oc2cc(C#N)c3ccccc3n2)ccc1Cl | 0.05 | 3.2
CCOC(=O)C1=C(NN(C)c2ccc(OC)cc2)CN(C(=O)c2ccccc2)C1 | -0.4 | 1.5
COc1ccc(COC(=O)C2=C(C)NC3=C(C(=O)CCC3)C2c2cc(OC)c(OC)c(OC)c2)cc1 (stereo not drawn) | x | 14
CC(=O)Oc1ccc(C2Nc3c(C(=O)c4ccccc4)cc(Cl)cc3C3C=CCC32)cc1 (stereo not drawn) | x | -0.005
CCOC(=O)CNC(=O)c1cccnc1Oc1ccc(Cl)cc1 | x | 0.68
Cc1nn(-c2ccccc2)c2sc(C(=O)O)cc12 | -1.4 | 0.54
S=C(N/N=C/c1ccccc1Cl)NC1CC2C=CC1C2 (stereo not drawn) | x | 0.15
CC1=C(C(=O)OCc2ccc(C)cc2)C(c2cccc(Br)c2)NC(=O)N1 (stereo not drawn) | x | 0.26
O=C(CCCn1nc(-c2ccccc2)c2cc(Cl)ccc21)NCCc1ccccc1 | 0.25 | 15
Cc1ccc(NC(=O)CN(C)C(=O)Cn2c(=O)oc3ccccc32)cc1 | -0.2 | x
COC(=O)[C@@H]1CC(C)=C(C)C[C@H]1C(=O)OC | -0.5 | -0.09
OCc1cc2c(cc1Br)OCO2 | 0.8 | -0.27

Record cards, as listed above. Screens in order: AID504770	Ba CapD inh
CC(=O)Oc1ccc(C2Nc3c(C(=O)c4ccccc4)cc(Cl)cc3C3C=CCC32)cc1 (stereo not drawn) in the list: x	-0.005
COc1ccc(COC(=O)C2=C(C)NC3=C(C(=O)CCC3)C2c2cc(OC)c(OC)c(OC)c2)cc1 (stereo not drawn) in the list: x	14
Cc1nn(C)c(C)c1Nc1n[nH]c(N)n1 in the list: -0.1	-0.46

Carrying on.
SMILES | AID504770 | Ba CapD inh
Cc1c(C(=O)NCc2ccco2)oc2c1C(O)CC(C)(C)C2 (stereo not drawn) | -0.25 | 0.16
CCc1nc2sc(C(=O)Nc3cccc(C(F)(F)F)c3)c(N)c2cc1C | x | 12
O=C(CSc1nnc2ccc3ccccc3n12)NCC1CCCO1 (stereo not drawn) | -0.8 | -0.54
CC(=O)Nc1cc(Sc2ccc(Cl)cc2)c(F)cc1[N+](=O)[O-] | x | 0.45
Cc1ccc(N2C(=O)CC(Nc3ccc(S(=O)(=O)N4CCCC4)cc3)C2=O)c(C)c1 (stereo not drawn) | -0.2 | x
CC(O)/C=C/c1ccc2ccccc2n1 (stereo not drawn) | -0.75 | 0.28
N#CCCS(=O)(=O)c1ccc(N)cc1 | -0.45 | -0.2
Cc1nn(-c2ccccc2)c(C)c1P(=Nc1ccccc1C(=O)O)(N1CCOCC1)N1CCOCC1 | -1.2 | x
CCCCCc1nnc(NC(=O)c2cccc(S(=O)(=O)N3CCCC3)c2)s1 | 1.3 | x
O=C(O)CCNc1ccc(Cl)cn1 | 1.6 | x
COc1ccc(C(=O)NCCCCN2CCN(c3ncccc3C(F)(F)F)CC2)cc1 | -0.55 | 0.52
Cc1nc2sc(C(=O)Nc3ccc(Br)cc3)c(N)c2c(C)c1C | x | 0.095
N#Cc1cnn(-c2ccc(F)c(Cl)c2)c1N | -0.4 | -0.49
C=CCc1ccccc1OCC(O)Cn1c2ccccc2c2ccccc21 (stereo not drawn) | 0.45 | 2.4
CCOC(=O)c1cnc2c(F)cc(F)cc2c1N1CCOCC1 | 1.8 | -0.92
CC1Oc2ccccc2C=C1/C=C(\C#N)c1nc2ccccc2c(=O)[nH]1 (stereo not drawn) | -0.55 | -0.54
Cc1[nH]c(C)c(C(=O)O)c1CNC1CCCCC1C (stereo not drawn) | -2.1 | 0.24
COc1ccc(-c2cnc3/c(=C4\CCCN4C)c(=O)n(-c4ccccc4)n23)cc1 | -0.3 | x
Cc1cc(N2CCCCC2)nc2ccc(NC(=O)CCC(=O)NCc3ccco3)cc12 | 1.8 | 80
NC(=O)Cn1cc(C(=O)c2ccco2)c2ccccc21 | 0.1 | 0.31
O=[N+]([O-])c1ccc(-c2nc(-c3ccccc3)c3cc([N+](=O)[O-])ccc3n2)cc1 | x | 0.18
CCOc1ccc(/C=C2\SC(=S)N(CC(=O)N3CCCc4ccccc43)C2=O)cc1 | -0.75 | -0.36
COC(=O)C1=C(N)OC2=C(C(=O)CC(C)(C)C2)C1c1cccs1 (stereo not drawn) | x | -0.24
O=C(CSc1ccccn1)Nc1ccccc1C(F)(F)F | 0.15 | 0.49
Cc1cc(Cl)c(S(=O)(=O)NCc2ccco2)cc1OCC(=O)NC1CCCCC1 | 0.6 | 0.91
O=C(CN(C(=O)CSc1nc2ccccc2o1)c1cccc(F)c1)NC1CCCCC1 | 1.2 | x
COc1cccc(-n2cc(C(=O)NCCC(=O)Nc3nc4ccccc4s3)c3ccccc3c2=O)c1 | x | 1.4
CCC1Oc2ccccc2N(Cc2ccccc2C)C1=O (stereo not drawn) | -1.2 | -1.7
CC(NC(=O)/C=C1\Sc2ccccc2NC1=O)c1ccccc1 (stereo not drawn) | 1.8 | -0.23
CC(C)(C)C(=O)Nc1nnc(-c2ccc3c(c2)CCCC3)o1 | 2.4 | -0.33
Cc1ccccc1S(=O)c1ccccc1C(=O)O (stereo not drawn) | 1.2 | 0.38
O=C(Nc1ccc2ccccc2c1)C1CC(=O)N(C2CCCCC2)C1 (stereo not drawn) | 1.1 | x
COc1ccc(-c2nc3cc(C)ccc3o2)cc1 | -1.1 | -0.83
O=C(Nc1ccccc1-c1nc2ccccc2s1)c1cc([N+](=O)[O-])ccc1Cl | x | 0.49
COCCCNC1CCC(C)C1 (stereo not drawn) | -0.75 | 0.43

In the list so far, 9 have an NH in an aromatic ring.
SMILES | AID504770 | Ba CapD inh
Cc1cc(=O)[nH]c2ccccc12 | -0.2 | x
O=C(CCc1c[nH]c2ccccc12)Oc1ccc(F)cc1 | -0.75 | -0.47
O=c1[nH]c2ccccc2nc1-c1ccc(Br)s1 | 1.4 | 5.3
N#CC(=C1CCCC1)c1nc2ccccc2[nH]1 | -0.75 | 0.18
Cc1nn(C)c(C)c1Nc1n[nH]c(N)n1 | -0.1 | -0.46
CC(C)C(C)(C#N)NC(=O)CSc1nc(N)cc(=O)[nH]1 (stereo not drawn) | -0.45 | x
CCCCn1c(N)c(N(C(=O)c2ccc(N3CCCC3=O)cc2)C2CCCC2)c(=O)[nH]c1=O | -1.1 | x
CC1Oc2ccccc2C=C1/C=C(\C#N)c1nc2ccccc2c(=O)[nH]1 (stereo not drawn) | -0.55 | -0.54
Cc1[nH]c(C)c(C(=O)O)c1CNC1CCCCC1C (stereo not drawn) | -2.1 | 0.24
